# Source: PubChem (ICCB-Longwood Screening Facility, Harvard Medical School)
# HCMV UL50-53 inh: disrupts HCMV UL50-UL53 complex binding; 190,000 tested, 0.15% active; inhibition, % (no concentration beside the values); HTRF UL50-UL53 interaction, normalized percent inhibition;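 active = both replicates at 50% or more, plus weaker picks with an unusually low signal ratio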;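 also: stock transfer was 100 nL into about 20 µL; 0% = negative control wells and 100% = wells with untagged competitor protein; inactives centre near -12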
# An asterisk follows results filed as active; & = joins results of further samples. An excerpt (hit frequency here may not be typical).
SMILES,HCMV UL50-53 inh
CC1(C)O[C@@H]2CC3C4CCC5=CC(=O)C=C[C@]5(C)C4[C@@H](O)C[C@]3(C)[C@]2(C(=O)CO)O1 (stereo not given in full),-61
Cc1ccc(Nc2nc3ccccc3[nH]2)cc1,-15
COC(=O)c1ccc(CSC(=S)N(C)C)cc1,-1
O=C(CCn1c(=O)oc2ccccc21)NCCc1ccccc1,0
CCN(CC)C(=O)c1cc(-c2ccc(C)s2)cc(S(=O)(=O)N2CCOCC2)c1,-7
CCCCC(C)(C)[C@H](O)/C=C/[C@H]1C=CC(=O)[C@@H]1C/C=C\CCCC(=O)O,-10&-10
O=C(Nc1nccs1)c1cc(=O)c2ccccc2o1,-28
O=C(Nc1nc(=S)ss1)c1ccccc1Cl,-4
Cn1c(CCCNC(=O)c2ccccc2)nc2ccccc21,-13
CCS(=O)(=O)N(C)[C@H]1c2cc(C#N)ccc2OC(C)(C)[C@@H]1O,0
CCSc1nnc(CSc2ncccn2)n1-c1cccc(C(F)(F)F)c1,3
Cc1ccc(C(=O)CCc2ccc(N)cc2)cc1,-8
c1nc(NCCCN2CCCCC2)c2[nH]cnc2n1,-1
CC1SCC(=O)N(CC(=O)NCc2ccccc2)C1=O (stereo not given),-2
Cc1c(C(=O)Nc2ccccc2)cnn1-c1ccccc1,9
COc1ccc(/C=C/c2cc(Cl)cc(Cl)c2)cc1,-15&-15
CCCC(=O)OCOC(=O)C1=C(C)NC(C)=C(C(=O)OC)C1c1cccc(Cl)c1Cl (stereo not given),-32&-15
CCCNC1C2CC3CC(C2)CC1C3 (stereo not given),-10
COc1ccc(C(=O)CNC2=NCCC2)cc1,1
CCOc1ncnc2sc(-c3ccccc3)cc12,7&-12
COCc1cc(O)c(O)c(O)c1-c1c(COC)cc(O)c(O)c1O,-19
COc1ccc2nc(Cn3cnc4cc(F)ccc4c3=O)[nH]c2c1,-22&-22
COc1ccc(CNCC2CCCO2)cc1 (stereo not given),-3
CN(C)CCN(Cc1ccc(Cl)cc1)c1ccccn1,2

# 5 entries picked at random from the list so far:
SMILES,HCMV UL50-53 inh
COc1ccc(CNCC2CCCO2)cc1 (stereo not given),-3
Cc1c(C(=O)Nc2ccccc2)cnn1-c1ccccc1,9
COc1ccc2nc(Cn3cnc4cc(F)ccc4c3=O)[nH]c2c1,-22&-22
COc1ccc(/C=C/c2cc(Cl)cc(Cl)c2)cc1,-15&-15
COc1ccc(C(=O)CNC2=NCCC2)cc1,1

# Next structures follow:
SMILES,HCMV UL50-53 inh
CCN1CCN(C(c2cccs2)C(C)NS(=O)(=O)c2ccccc2)CC1 (stereo not given),-5
COc1ccc(-c2ccnc(SCC(=O)c3ccc(Cl)cc3)n2)cc1,-15
Cc1cc(NC(=O)CSCc2ccccc2)no1,-12
CCc1nnc(NC(=O)c2cc3ccccc3cc2OC)s1,-33
O=C(O)CCC/C=C\C[C@@H]1CO[C@H](C(F)(F)F)O[C@@H]1c1ccccc1O,1
COc1cc(C(=O)Nc2nc3ccc(C)cc3s2)cc(OC)c1OC,-6
CC1SCC(=O)N(CC(=O)Nc2ccccc2C(F)(F)F)C1=O (stereo not given),-5
C=C1C(=CC=C2CCC[C@]3(C)C(C(C)CCCC(C)C)CC[C@@H]23)CC(O)CC1O (stereo not given in full),-40
O=C(O)COc1cccc2ccccc12,-22
CC12CCC(C1)C(C)(C)C2OCC(O)CN1CCN(c2cccc(C(F)(F)F)c2)CC1 (stereo not given),-7
Cc1nc(N)nc(CSc2ccccc2)n1,12
O=C(CSc1nnc(-c2cccc(Cl)c2)o1)NC1CCCCC1,9
C=C(C)C1CC=C(C)CC1 (stereo not given),-60
O=C(C1CCCCCC1)N1CCC(n2cc(C3CC3)nn2)CC1,-17
CC(O)c1nc2ccccc2n1CCc1ccccc1 (stereo not given),5
NC(=NC(=O)c1ccc(Cl)cc1)c1ccc(C(F)(F)F)cn1,-12
CC(Oc1ccccc1)C(=O)N1CC(=O)Nc2ccc(F)cc2C1c1ccccc1 (stereo not given),1
Cc1cccc(N2CCN(C(=O)c3cccs3)CC2)n1,-5
Cc1sc(/N=C/c2ccco2)c(C#N)c1C,-18
CC(C)(C)NC(=O)c1cccc2c1-c1ccccc1C2=O,-47
Nc1cc(Nc2ccc(S(N)(=O)=O)cc2)ncn1,-20&18
COc1ccc(O)c(C=NCCc2ccccc2)c1,8
O=C(O)c1ccc2c(c1)NC(=O)C1CCCN21 (stereo not given),79*
COCC(=O)Nc1c(C(=O)OC)n(CCC(C)C)c2ncc(NC(C)CCn3cccn3)cc12 (stereo not given),-17
O=C1C2C3C=CC(O3)C2C(=O)N1c1ccccc1C(F)(F)F (stereo not given),-3
CCC(Sc1nnc(-c2c[nH]c3ccccc23)n1CC)C(=O)OC (stereo not given),6
O=C1c2ccccc2C(Cc2ccnc(F)c2)(Cc2ccnc(F)c2)c2ccccc21,5
CC(=O)Oc1cc(C)cc2oc(=O)cc(-c3ccccc3)c12,4
Cc1sc(NC(=O)c2ccco2)c(CN2CCc3ccccc3C2)c1C,5
CCCCCC/C=C\CCCC(=O)CC(=O)N[C@H]1CCOC1=O,-16&-16
CCc1nnc(NC(=O)c2ccccc2)s1,-24
O=C(Nc1ccc(S(=O)(=O)N2CCCC2)cc1)C1CC1,2&-8
CC(=O)[C@@]12O[C@](C)(c3ccccc3)O[C@@H]1CC1C3CCC4=CC(=O)CC[C@]4(C)C3CC[C@@]12C (stereo not given in full),-67
COC(=O)NC(=C(Cl)Cl)S(=O)(=O)c1ccccc1,21
C=CCSc1nnc(-c2nnc(SCC=C)n2CC)n1CC,-11
Nc1nc(Cl)nc2c1ncn2C1OC(CO)C(O)C1F (stereo not given),-12
C[C@]12CCC3c4ccc(O)cc4CCC3C1CCC2O (stereo not given in full),-26
O=C(c1ccc(Nc2nccc(-c3cc4ccccc4s3)n2)cc1)N1CCC(N2CCCC2)CC1,-86&-45&-199
O=C(O)CCC/C=C\C[C@@H]1[C@@H](CC[C@@H](O)CCc2cccc(C(F)(F)F)c2)[C@H](O)C[C@@H]1O,-8&-8
CC(=O)c1cccc(-c2cc3c(n(CC=C(C)C)c2=O)CCN(Cc2cnc(N(C)C)s2)C3)c1,-36
CC(C)c1nnc(NC(=O)Cc2ccccc2)s1,-13
Cc1cc(O)c(C(=O)c2ccccc2)c(=O)o1,-23
CS/C(N)=C(C#N)/C(C#N)=C(\N)SC,-2
O=C(O)CCC(=O)Nc1ccc(Br)cn1,-21&-18
CC(=O)O[C@@]12CO[C@@H]1C[C@H](O)[C@@]1(C)C(=O)[C@H](OC(=O)O)C3=C(C)[C@@H](OC(=O)[C@H](O)[C@@H](NC(=O)c4ccccc4)c4ccccc4)C[C@@](O)([C@@H](OC(=O)c4ccccc4)C12)C3(C)C (stereo not given in full),-17
CCN1CCN(Cc2ccc(NC(=O)c3ccc(C)c(NC(=O)C(=O)c4c[nH]c5ccccc45)c3)cc2C(F)(F)F)CC1,-14
C1=C(CCNc2ncnc3nc[nH]c23)CCCC1,9
CNc1nc(-c2cccc(N)c2)cs1,-14

# A draw from above in order of length of the SMILES, high to low.
SMILES,HCMV UL50-53 inh
O=C(O)CCC/C=C\C[C@@H]1[C@@H](CC[C@@H](O)CCc2cccc(C(F)(F)F)c2)[C@H](O)C[C@@H]1O,-8&-8
CC(=O)c1cccc(-c2cc3c(n(CC=C(C)C)c2=O)CCN(Cc2cnc(N(C)C)s2)C3)c1,-36
C[C@]12CCC3c4ccc(O)cc4CCC3C1CCC2O (stereo not given in full),-26
Cc1cc(O)c(C(=O)c2ccccc2)c(=O)o1,-23
C1=C(CCNc2ncnc3nc[nH]c23)CCCC1,9
CC(C)c1nnc(NC(=O)Cc2ccccc2)s1,-13
O=C(O)CCC(=O)Nc1ccc(Br)cn1,-21&-18
CNc1nc(-c2cccc(N)c2)cs1,-14

# Next part.
SMILES,HCMV UL50-53 inh
CCOC(=O)CN1C(=O)/C(=C/c2ccccc2)SC1=S,-34
Cc1[nH][nH]c(=O)c1C1=NCCC1,12
CSc1nnc(NC(=O)c2ccc(C)c(C)c2)s1,-14
NC(=O)CSc1nc2c([nH]c3ccccc32)c(=O)n1-c1ccccc1,0
C[C@@]1(O)[C@H](O)[C@@H](CO)O[C@H]1n1cnc2c(NC3CCCC3)nc(Cl)nc21,12
CCCCC[C@H](O)/C=C/[C@H]1C(=O)C[C@H](O)[C@@H]1C/C=C\CCCC(=O)NCCO,0&0
CCOc1ccc(NC(=O)c2cc3cc(Br)ccc3oc2=O)cc1,3
O/N=C/c1ccc(-c2ccc(Br)cc2)o1,-24
CC/C=C\C/C=C\C/C=C\C/C=C\C/C=C\CCCCCC(=O)O,-22&-22&9
O[C@H](CN1CCC2(CC1)OCCO2)C(F)(F)F,1
NC(=O)Cn1c2ccccc2c2nc3ccccc3nc21,-31
O=c1[nH]cnc2c1cnn2Cc1ccccc1,-5
Cc1ccc(CC2SC(=O)NC2=O)o1 (stereo not given),1
COc1ccc(CC(=O)NCc2cccc(SC)c2)cc1,-2
CCC(CO)NCCNC(CC)CO (stereo not given),-6&-26
O=C(NCc1nnc(SC/C=C/c2ccccc2)o1)c1ccccc1F,-18
O=C1CCCCCN1CO,7&4
COc1c(C=O)c(O)cc2c1C(=O)c1ccccc1C2=O,-23
O=S(=O)(NCCN1CCOCC1)c1cccs1,-12
COc1ccc(S(=O)(=O)N2CCCC2)cc1C(=O)O,12
Cc1[nH]c2ccc(Cl)cc2c(=O)c1CN1CCCCC1,-1
Cc1oc2c(CN(C)C)c(O)ccc2c(=O)c1-c1cnn(-c2ccccc2)c1,-2
NC(=O)c1oc2ccccc2c1NC(=O)Cc1cccc2ccccc12,-9
Cc1c(C)n(CC(O)CN2CCN(CCO)CC2)c2ccccc12 (stereo not given),-9
CCCCC/C=C\C/C=C\C/C=C\C/C=C\CCCC(=O)OCc1ccsc1,-23&-23
O=C(c1cccc(=O)[nH]1)N(Cc1cccnc1)Cc1ccc2c(c1)OCO2,-20&-20
O=C(c1ccc2c(c1)OCO2)N1CCCCC1,-7
CCCCC(=O)NC1=C(C(=O)OC)SCC1,-39&-48
COc1cc2c(cc1OC)-c1cc3ccc(OC)c(OC)c3c[n+]1CC2,-156&-141
Cc1ccccc1Cn1c(CNC(=O)C(C)(C)C)nc2ccccc21,-17
O=C(CSc1ncnc2sc(-c3ccccc3)cc12)N1CCOCC1,-27
c1ccc(-c2csc3ncnc(N4CCCC4)c23)cc1,-12
O=C(COC(=O)c1ccccc1F)c1ccc(-n2nncc2-c2ccc(F)cc2)cc1,1
CC(=O)c1ccc2c(c1)[C@@H]1C=CC[C@@H]1[C@H](c1cc3c(cc1Br)OCO3)N2,5&-19&-19
CCc1cc2c(=O)c(Oc3ccccc3F)c(C(F)(F)F)oc2c(CN(C)C)c1O,0
C[C@@H](NCCCc1cccc(C(F)(F)F)c1)c1cccc2ccccc12,-6
CC1(O)CC(c2ccccc2)SC(c2ccccc2)C1 (stereo not given),-3
CCCN(c1ccc(OCC)cc1)c1ncnc2nc[nH]c12,-17
COCC1=C(C(=O)OC(C)OC(=O)OC(C)C)N2C(=O)C(NC(=O)C(=NOC)c3csc(N)n3)C2SC1 (stereo not given),-62
Cc1cc(C)c(-c2csc(NC(=O)c3ccccc3)n2)c(C)c1,-2
CSc1nc2nc(C)c(Cc3cccc(F)c3)c(C)n2n1,-5
CCOC(=O)c1c(NC(=O)CCN2CCC(C)CC2)sc2c1CCC2,5
CCCCn1c(CCNC(=O)c2ccccc2)nc2ccccc21,-12
O=C(CSC1=NCCS1)Nc1cc(C(F)(F)F)ccc1Cl,-3
CN(C)[C@@H]1CCc2[nH]c3ccc(NC(=O)c4ccc(F)cc4)cc3c2C1,3
CCCCCC#CCC#CCC#CCC#CCCCC(=O)O,-12&-12&-26
c1cnc2nc(CSc3ncn[nH]3)cn2c1,-5
NS(=O)(=O)c1ccc(NC(=O)c2ccc(Cl)s2)cc1,-25
Cc1nnc2ccc3nnc(-c4cc(Cl)ccc4OC(C)C)n3n12,-8
O=C(Nc1ccc(-n2nncc2-c2ccccc2)cc1)c1ccc(F)cc1,-1
CCCn1c(CCCO)nc2ccccc21,-6
COc1ccc(-c2nc3ccccc3n2C(=O)c2ccccc2C(=O)O)cc1,0
Nc1ncnc2c1ncn2[C@@H]1O[C@H](COP(=O)(O)O)[C@@H](O)[C@H]1O,-15
CC(=O)C1C(=O)C=C(C)OC1=O (stereo not given),-44
CC(C)(C)c1ccc(S(=O)(=O)Nc2ccc(O)c(C(=O)O)c2)cc1,2&-14
O=C(O)Cn1c(C(=O)Nc2nc(-c3ccccc3Cl)cs2)cc2ccccc21,-52
O=C(c1ccc(Cl)cc1)c1cnc2ccccn12,-10
CCOc1ccc(C2CC(=O)NC(SCC(=O)Nc3ccccc3Cl)=C2C#N)cc1 (stereo not given),-15
COC(=O)CC(N)c1cccc2ccccc12 (stereo not given),0
CCN(CC)CCNC(=O)c1c(C)[nH]c(/C=C2\C(=O)Nc3ccc(Cl)cc32)c1C,-65
# Further records:
SMILES,HCMV UL50-53 inh
O=c1oc(-c2ccccc2)nc2ccsc12,0
CCOC(=O)N1CCN(CC(O)COc2ccc3c(c2)CCC3)CC1 (stereo not given),-12
CSC1=NCCN1S(=O)(=O)c1ccc(Br)cc1,-5
Cc1cccc(C)c1NC(=O)CN1CCN(CCCC(c2ccc(F)cc2)c2ccc(F)cc2)CC1,-3
O=C(O)C(CSc1ncccn1)CSc1ncccn1,-12
CCCCOc1ccc(C(=O)Nc2ccc(F)cc2F)cc1,4
NC1(C(=O)NC(CCO)c2ccc(Cl)cc2)CCN(c2ncnc3[nH]ccc23)CC1 (stereo not given),11
Cc1cc(C)n(C(=O)C2CCCN2S(=O)(=O)c2ccccc2)n1 (stereo not given),2
N=C(N)SCCc1ccc(OCc2ccc([N+](=O)[O-])cc2)cc1,-53
Cc1[nH][nH]c(=O)c1C1=NCCCCC1,7
FC(F)(F)c1ccc(N2CCN(Cc3ccccc3)CC2)nc1,-16
C=C1C2(C(=O)N3CCC(c4ccc(F)cc4)C3)CCC(C2)C1(C)C (stereo not given),-1
CS(=O)(=O)c1ccc(COC(=O)c2ccccc2O)cc1,-1
CC(=O)[C@@]1(O)CC[C@H]2[C@@H]3C[C@H](C)C4=CC(=O)C=C[C@]4(C)[C@@]3(F)[C@@H](O)C[C@@]21C,-12
Clc1ccc(-c2n[nH]c3c2CCCC3)cc1,-8
